Bioassay records (PubChem BioAssay)
Cruzain inh Det: inhibitors of Trypanosoma cruzi cruzain with detergent; purified cruzain, Z-FR-AMC fluorescence, 0.01% Triton; Potency, µM, inactives show max response, negative = inhibition, most hits filed as inhibitors; 200,000 tested, 0.43% active; AID 1478;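 also: plate controls were neutral wells for no effect and buffer without enzyme for full effect; nearly all actives have a fitted effect of over 40% in size; top concentration of the series not given in the record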
Target sequence (P25779 123-467 limits assumed): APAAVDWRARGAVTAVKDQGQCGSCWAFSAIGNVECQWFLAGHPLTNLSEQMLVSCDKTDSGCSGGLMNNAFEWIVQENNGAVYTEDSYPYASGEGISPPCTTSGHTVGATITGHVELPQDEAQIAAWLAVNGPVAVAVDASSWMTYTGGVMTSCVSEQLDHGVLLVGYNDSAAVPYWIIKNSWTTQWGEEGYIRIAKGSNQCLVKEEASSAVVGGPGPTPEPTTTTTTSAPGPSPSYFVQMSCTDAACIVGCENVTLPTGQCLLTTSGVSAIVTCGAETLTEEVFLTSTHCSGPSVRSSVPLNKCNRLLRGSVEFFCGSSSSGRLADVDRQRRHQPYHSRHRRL
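Detergent-containing arm of a paired screen for aggregation-based inhibition: 0.01% Triton X-100 present. Cruzain at 1.5 nM cleaved 2 uM Z-FR-AMC at pH 5.5 with 5 mM DTT; AMC fluorescence gain over 60 s measured activity.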
NS1 function inh: inhibitors of influenza NS1 protein function | S. cerevisiae slowed by influenza A NS1, growth recovery by OD600 | Potency, µM (doses to about 46.1 µM), without a hit: at the top dose activity, positive = more growth | 270,000 tested, 0.4% active; active means well fitted rising curve with a large enough effect; inconclusive means small, poorly fitted or top-dose-only effect; inactive means no such curve, though single readings can be large or run the other way; also: nearly all actives have a fitted effect of over 50% in size
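Growth recovery, yeast-based: influenza A NS1 expressed in S. cerevisiae causes slow growth, and suppressors are detected by OD600. The parent strain without NS1 is used as positive control.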
LASV entry inh: blocks Lassa virus binding to or entry into cells | Lassa virus pseudotype entry inhibition, cell reporter; control for the full effect not named in the record | Potency, µM (highest dose often 37.9 µM), for the others: at the highest dose activity change, negative = inhibition, hits mostly inhibitors | 300,000 tested, 1.2% active; active means well fitted inhibition curve with a large enough effect; inconclusive means small, poorly fitted or top-dose-only effect, or effect the other way; inactive means flat fitted curve, though single readings scatter; tested in HEK293 cells; also: % is scaled to controls: 0 for no effect and ±100 for the full control effect; nearly all actives have a fitted effect of over 50% in size; luciferase read-out
MARV entry inh: blocks Marburg virus binding to or entry into cells; Marburg virus pseudotyped entry inhibition, cell reporter; control for the full effect not named in the record; about a third of the inactives were read at about 46 µM; Potency, µM (titrated, usually from 37.8 µM), inactives show at the highest dose activity change, negative = inhibition, actives largely listed as inhibitors; 300,000 tested, 1.8% active; AID 540276; active = well fitted inhibition curve with a large enough effect; inconclusive = small, poorly fitted or top-dose-only effect, or effect the other way; inactive = flat fitted curve, though single readings scatter; tested in HEK293 cells; about a fifth of its hits are not listed in these tables; also: % is scaled to controls: 0 for no effect and ±100 for the full control effect; luciferase read-out
RE007 growth inh: less growth of the S. pombe RE007 Vpr strain. AID 651644. S. pombe RE007 Vpr strain, BacTiter-Glo ATP luminescence, 24 h; control for the full effect not named in the record. Potency, µM (highest dose often 92.2 µM), for the others: at the top dose activity change, negative = less growth. 360,000 tested, 0.21% active; active = well fitted falling curve with a large enough effect; inconclusive = small, poorly fitted or top-dose-only effect; inactive = no such curve, though single readings can be large or run the other way;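 also: % is scaled to controls: 0 for no effect and ±100 for the full control effect; nearly all actives have a fitted effect of over 50% in size; the assay follows cell death caused by Vpr and the record does not say whether a fall means rescue or toxicity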
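Fission yeast RE007 carrying one integrated HIV-1 vpr copy, seeded at OD 0.01 in PMG+AL medium with 23 nL pinned compound. Grown 24 h at 30 degrees; viability read by BacTiter-Glo luminescence after 5 min.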
Cruzain noTriton: inhibitors of Trypanosoma cruzi cruzain without detergent; P25779; purified cruzain, Z-FR-AMC fluorescence, no detergent; Potency, µM, without a hit: max response, negative = inhibition, usual class: inhibitors; 200,000 tested, 2.3% active;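 also: plate controls were enzyme without inhibitor for no effect and buffer without enzyme for full effect; nearly all actives have a fitted effect of over 40% in size; top concentration of the series not given in the record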
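Purified cruzain at 1.5 nM, pre-incubated 15 min with compound at room temperature in 100 mM sodium acetate pH 5.5, 5 mM DTT, 0.00005% Triton X-100. Reaction started with 2 uM Z-FR-AMC; AMC fluorescence increase over 60 s gives rate.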
2A StopGo: FMDV 2A StopGo reporter, luciferase signal; human cells with a luciferase reporter of 2A StopGo recoding; control for the full effect not named in the record; Potency, µM (highest dose often 57.9 µM), inactives show at the top dose signal change, negative = less light; 410,000 tested, 1.2% active; active = well fitted falling curve with a large enough effect; inconclusive = small, poorly fitted or top-dose-only effect; inactive = no such curve, though single readings can be large or run the other way; tested in HEK293T cells; also: % is scaled to controls: 0 for no effect and ±100 for the full control effect; nearly all actives have a fitted effect of over 45% in size; luciferase light after 4 h
SARS PLP yeast: inhibitors of SARS-CoV papain-like protease in yeast | S. cerevisiae expressing SARS-CoV PLpro, growth rescue; control for the full effect not named in the record | Potency, µM (doses to about 32.9 µM), inactives show top-dose activity, positive = growth rescue | 330,000 tested, 0.19% active; active means well fitted rising curve with a large enough effect; inconclusive means small, poorly fitted or top-dose-only effect; inactive means no such curve, though single readings can be large or run the other way; also: 0% is about no effect; nearly all actives have a fitted effect of over 55% in size; growth read by luminescence after 48 h
* hit, by the source's call; ? = inconclusive; . = not tested or not shown; & = joins results of further samples; [ ] = remark or other dose. Unless noted, calls follow the shape of the dose curve; as a rule, active = well fitted curve in the direction sought with a large enough effect; inconclusive = small, poorly fitted or top-dose-only effect, or another doubt; inactive = no such curve, though single readings can be large; an effect the other way counts as inactive or inconclusive. Potency is read from the fitted curve at half-maximal effect. Compounds as they come, and some 4.5% of all compounds hit somewhere here.

Value order – Cruzain inh Det	NS1 function inh	LASV entry inh	MARV entry inh	RE007 growth inh	Cruzain noTriton	2A StopGo	SARS PLP yeast
Cc1ccc(-n2c(=O)c3c(cnn3C)n(Cc3ccc(Cl)cc3)c2=O)cc1
  6.4%	.	-21%[46.1 µM]	21%[46.1 µM]	.	19%	-22%	.
Cc1n[nH]c(=O)nc1NCC1CCCO1 (configuration not stated)
  3.2%	-16%	-1%	?	-2%	2%	3%	4%
CCN(c1ccccc1)C(CNS(=O)(=O)c1ccccc1)c1ccccc1 (configuration not stated)
  -11%	.	?	-16%[46.1 µM]	.	2%	21%	.
COCCN(C(=O)CSc1ccc2c(c1)OCCO2)c1c(N)n(CC(C)C)c(=O)[nH]c1=O
  .	.	5%[46.1 µM]	0%[46.1 µM]	-4%	.	-8%	-1%
CN(c1ccccc1)S(=O)(=O)c1cccc(NC(=O)CCNC(=O)c2ccc(Cl)cc2)c1
  .	.	?	-31%	-10%	.	32µM*	-3%
Cc1noc(C)c1C(=O)N1CCN(c2ccc(OCc3ccccc3)cc2)CC1
  .	0%	.	0%	1%	.	?	0%
CCOC(=O)C1(C)C=C(Nc2cccc(C(=O)O)c2)C(=O)N1c1cccc(C(=O)O)c1 (configuration not stated)
  -0.1%	.	3%[46.1 µM]	20%[46.1 µM]	.	5%	-2%	.
CC(C)Nc1nc(-c2ccncc2)nc(-c2ccc(Cl)cc2)c1C#N
  .	-3%	14%	-22%[46.1 µM]	13%	.	-16%	-2%
CC1=NN(c2nc(-c3ccc(C)cc3)cs2)C(=O)C1N=Nc1ccc(C(N)=O)cc1 (configuration not stated)
  .	.	4.6µM*	6.5µM*	12%	.	-28%	-8%
COc1ccc(N2CCC(CNC(=O)Nc3cccc(OC)c3)C2)cc1 (configuration not stated)
  0.3%	3%	-13%[14.3 µM]	-2%	-1%	?	8%	4%
CC#CC[N+](C)(C)CC(=O)c1ccccc1
  .	2%	.	.	5%	.	8%	0%
CCOC(=O)c1c(-c2ccccc2)csc1NC(=O)c1cc(-c2ccc(Cl)cc2)on1
  -2.0%	.	8%[46.1 µM]	1%[46.1 µM]	.	-3%	-18%	.
O=C1CCCN1CC(=O)N1CCCC(Nc2cccc(F)c2)C1 (configuration not stated)
  .	2%	16%	?	8%	.	19%	?
O=C(Cc1ccccc1)Oc1ccccc1N1C(=O)CCC1=O
  4.9%	-3%	-3%	3%	5%	2%	12%	2%
Cc1cc(N2CCC(C)CC2)n2ncc(-c3ccccc3)c2n1
  -11%	-9%	?	?	-15%	-10%	?	-28%

Next section
Value order – Cruzain inh Det	NS1 function inh	LASV entry inh	MARV entry inh	RE007 growth inh	Cruzain noTriton	2A StopGo	SARS PLP yeast
Cc1cc2nn(-c3ccccc3)nc2cc1NC(=O)c1cccc2c(Cl)cccc12
  -2.3%	.	1%[46.1 µM]	3%[46.1 µM]	.	-7%	31%[activator]	.
NC(Cc1cccc(-c2ccccc2CP(=O)(O)O)c1)C(=O)O (configuration not stated)
  -8.6%	0%	9%	?	.	-10%	.	.
CC(C)n1cc(/C(N)=N/O)c(=O)n(Cc2ccccc2)c1=O
  .	1%	.	.	16%	.	7%	1%
O=C(COC(=O)c1cc([N+](=O)[O-])ccc1N1CCOCC1)NCc1ccc(F)cc1
  .	-10%	-2%	-7%	1%	.	-10%	1%
CC(=O)c1cccc(NC(=O)c2cccc3ccccc23)c1
  .	-19%	.	.	?	.	4%	-3%
NC(=O)C1CCCCc2c1[nH]c1ccc(Cl)cc21 (configuration not stated)
  .	2%	.	.	-9%	.	-26%	0%
COc1ccc2c(c1)c1ncn(CCN3CCCCC3)c(=O)c1n2C
  -7.3%	1%	21%	-18%	4%	2%	3%	6%
CCOC(=O)/N=C(/NC(=O)Nc1ccc(C(=O)OCC)cc1)OC
  0.5%	-4%	8%	-6%[46.1 µM]	-20%	-7%	-8%	1%
CN(C)C(CNC(=O)CCNC(=O)c1ccc(Cl)cc1)c1ccco1 (configuration not stated)
  .	.	3%	0%	-6%	.	-5%	.
Cc1ccccc1CC1(CO)CCCN(C(=O)c2cc(Cl)ccc2F)C1 (configuration not stated)
  .	-37%	?	?	14%	.	0%	0%
Cc1onc(-c2ccccc2Cl)c1C(=O)N1CCCCC1
  .	3%	?	?	-9%	.	7%	-1%
Cc1cccc(-c2noc(C(C)NC(=O)c3ccco3)n2)c1 (configuration not stated)
  .	-14%	-14%	-6%[46.1 µM]	10%	.	?	-2%
COc1ccc(C(=O)NNC(=O)c2cc3cc(OC)ccc3oc2=O)cc1
  .	3%	1%	14%	0%	.	-18%	0%
Cc1ccc(S(=O)(=O)NC(C)C(c2cccs2)N2CCOCC2)cc1 (configuration not stated)
  0.7%	-17%	-6%	2%	-5%	2%	-14%	4%
COc1ccc(NC(=O)CSc2nccn2Cc2ccco2)c(OC)c1
  2.4%	-1%	?	?	-12%	1%	6%&55%	-2%

Compounds from the list above with a thiophene ring, fused or not:
Value order – Cruzain inh Det	NS1 function inh	LASV entry inh	MARV entry inh	RE007 growth inh	Cruzain noTriton	2A StopGo	SARS PLP yeast
CCOC(=O)c1c(-c2ccccc2)csc1NC(=O)c1cc(-c2ccc(Cl)cc2)on1
  -2.0%	.	8%[46.1 µM]	1%[46.1 µM]	.	-3%	-18%	.
Cc1ccc(S(=O)(=O)NC(C)C(c2cccs2)N2CCOCC2)cc1 (configuration not stated)
  0.7%	-17%	-6%	2%	-5%	2%	-14%	4%

Later entries
Value order – Cruzain inh Det	NS1 function inh	LASV entry inh	MARV entry inh	RE007 growth inh	Cruzain noTriton	2A StopGo	SARS PLP yeast
Cc1nc(-c2ccc(Cl)cc2)sc1CCNC(=O)c1cccs1
  -13%	.	4%[46.1 µM]	.	.	-10%	-14%	.
O=C(O)CCC(=O)Nc1ccccc1C(=O)NC1CCCCC1
  5.8%	1%	7%	0%	4%	1%	-3%	-1%
CCn1c(SCC(=O)NCCc2ccccc2)nc2c(c1=O)SC(C)C2 (configuration not stated)
  -1.9%	-14%	.	.	13%	2%	-20%	-3%
O=C(c1ccccc1)n1ccc(-c2cnc(-c3ccccc3)s2)n1
  19%	-114%	?	?	2%	14%	-21%	-23%
O=c1c2ccccc2n2c(-c3ccccc3F)nnc2n1CCc1ccccc1
  -8.4%	.	0%[46.1 µM]	-2%[46.1 µM]	.	?	-20%	.
CC(C)Cc1nnc(NC(=O)CN2C(=O)C3CCCCC3C2=O)s1 (configuration not stated)
  .	.	6%	30%	1%	.	2%	-3%
CSCCNC(=O)c1ccc(C(C)(C)C)cc1
  4.8%	-5%	?	-19%	?	-1%	-20%	-5%
O=[N+]([O-])c1ccccc1/C=C/C=N/N1CCCCC1
  .	1%	?	?	-25%	.	56%[activator]	0%
CNC(=S)NNC(=O)COc1cccc(C)c1C
  -2.1%	-11%	9%	-1%	3%	0%	5%	10µM*
O=C(CS(=O)(=O)Cc1ccccc1)Nc1ncccn1
  -1.4%	0%	5%	11%	14%	11%	-12%	-3%
Cc1cc2c(cc1S(=O)(=O)NCc1ccccc1Cl)OCC(=O)N2
  -7.7%	.	-1%[46.1 µM]	.	.	9%	64%[activator]	.
CCOC(Cn1cc(C)c(=O)[nH]c1=O)OCC
  .	.	-5%	?	45%	.	-1%	6%
CCCC(OC(=O)CN1C(=O)COc2ccccc21)C(=O)NC1CCCC1 (configuration not stated)
  1.5%	0%	-17%[14.3 µM]	?	3%	5%	3%	22%
CC(=O)c1ccc(N2CCN(C(=O)c3ccc(OCc4c(C)noc4C)cc3)CC2)cc1
  -6.5%	-12%	?	?	7%	24%	?	0%
CCOc1ccc(NC(=S)Nc2cc(-c3ccccc3)[nH]n2)cc1
  -26%	-24%	-1%	12%	14%	-9%	6%	-1%

Brought forward from above: three entries, followed by the next part.
Value order – Cruzain inh Det	NS1 function inh	LASV entry inh	MARV entry inh	RE007 growth inh	Cruzain noTriton	2A StopGo	SARS PLP yeast
CCCC(OC(=O)CN1C(=O)COc2ccccc21)C(=O)NC1CCCC1 (configuration not stated)
  1.5%	0%	-17%[14.3 µM]	?	3%	5%	3%	22%
CC(=O)c1ccc(N2CCN(C(=O)c3ccc(OCc4c(C)noc4C)cc3)CC2)cc1
  -6.5%	-12%	?	?	7%	24%	?	0%
CCOc1ccc(NC(=S)Nc2cc(-c3ccccc3)[nH]n2)cc1
  -26%	-24%	-1%	12%	14%	-9%	6%	-1%
COc1cc(S(=O)(=O)N(C)C)ccc1F
  -0.4%	2%	-3%	-21%	3%	0%	16%	-6%
COc1ccc(C2=NOC(C(=O)NCc3cccs3)C2)cc1OC (configuration not stated)
  3.3%	-4%	?	?	4%	-1%	8%	2%
N#C/C(=C\c1cn[nH]c1-c1ccc(Cl)cc1)C(=O)NC1CC1
  -5.0%	4%	?	-21%	0%	-6%	?	-9%
Cc1ccc2cc(CN(CC3CCCO3)C(=O)c3cccs3)c(=O)[nH]c2c1 (configuration not stated)
  .	-1%	-13%[46.1 µM]	21%[46.1 µM]	6%	.	15%	1%
CC(Sc1nnc(Cc2cccs2)n1C1CCCCC1)C(=O)NCc1ccco1 (configuration not stated)
  2.3%	3%	-22%	?	2%	5%	-25%	-3%
O=C(O)c1ccc(/C=C2/SC(=S)N(Cc3ccccc3)C2=O)cc1
  .	7%	11%[46.1 µM]	?	3%	.	5%	0%
Cc1ccc(OCC(=O)Nc2cccc(-c3nc4ccccc4s3)c2)cc1
  -9.7%	.	13%[46.1 µM]	27%[46.1 µM]	.	-26%	21%	.
Nc1nc(-c2cccnc2)nn1C(=O)COc1ccccc1
  4.0%	-6%	10%	8%	-2%	-3%	11%	13%
CCN(c1ccc(NC(=O)CSc2nnc3nc(C)cc(C)n23)cc1)C(C)C
  -9.9%	14%	-5%	?	-4%	-21%	-7%	-11%
CC(C)(C)n1nc2c(c1NC(=O)c1cccs1)CS(=O)C2 (configuration not stated)
  6.4%	-6%	18%	?	25%	-1%	-5%	0%
